Cruzain inh noDet – cruzain (T. cruzi) inhibition without detergent; P25779; purified cruzain, Z-FR-AMC fluorescence, no detergent; Potency, µM, without a hit: max response, negative = inhibition, actives largely listed as inhibitors; actives 2.3% (n = 200,000); AID 1476; active = well fitted curve in the direction sought with a large enough effect; inconclusive = small, poorly fitted or top-dose-only effect, or another doubt; inactive = no such curve, though single readings can be large; an effect the other way counts as inactive or inconclusive;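 note: plate controls were enzyme without inhibitor for no effect and buffer without enzyme for full effect; nearly all actives have a fitted effect of over 40% in size; top concentration of the series not given in the record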
Target sequence (P25779 123-467 limits assumed): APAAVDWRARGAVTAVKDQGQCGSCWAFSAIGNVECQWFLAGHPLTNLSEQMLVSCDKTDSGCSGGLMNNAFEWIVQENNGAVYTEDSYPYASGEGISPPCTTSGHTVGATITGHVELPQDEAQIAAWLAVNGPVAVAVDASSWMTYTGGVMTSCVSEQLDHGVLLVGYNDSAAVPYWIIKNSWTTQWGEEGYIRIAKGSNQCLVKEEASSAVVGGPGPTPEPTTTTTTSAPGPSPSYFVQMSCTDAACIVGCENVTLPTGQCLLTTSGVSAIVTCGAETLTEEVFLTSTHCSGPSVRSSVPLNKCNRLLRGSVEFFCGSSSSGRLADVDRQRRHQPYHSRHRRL
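Purified cruzain at 1.5 nM, pre-incubated 15 min with compound at room temperature in 100 mM sodium acetate pH 5.5, 5 mM DTT, 0.00005% Triton X-100. Reaction started with 2 uM Z-FR-AMC; AMC fluorescence increase over 60 s gives rate.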
RE007 growth inh – less growth of the S. pombe RE007 Vpr strain; S. pombe RE007 Vpr strain, BacTiter-Glo ATP luminescence, 24 h; control for the full effect not named in the record; actives 0.21% (n = 360,000); Potency, µM (titrated, usually from 92.2 µM), inactives show top-dose activity change, negative = less growth; active = well fitted falling curve with a large enough effect; inconclusive = small, poorly fitted or top-dose-only effect; inactive = no such curve, though single readings can be large or run the other way;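 note: % is set by controls: 0 for no effect and ±100 for the full control effect; nearly all actives have a fitted effect of over 50% in size; the assay follows cell death caused by Vpr and the record does not say whether a fall means rescue or toxicity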
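Fission yeast strain RE007, carrying one chromosomally integrated HIV-1 vpr copy, was seeded at OD 0.01 in PMG+AL medium with 23 nL pinned compound. After 24 h at 30 °C and 99% humidity, viability was read by BacTiter-Glo luminescence.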
Cruzain Triton – blocks cruzain activity in presence of Triton detergent | purified cruzain, Z-FR-AMC fluorescence, 0.01% Triton | Potency, µM, for inactives: max response, negative = inhibition, hits mostly inhibitors | actives 0.43% (n = 200,000); active = well fitted curve in the direction sought with a large enough effect; inconclusive = small, poorly fitted or top-dose-only effect, or another doubt; inactive = no such curve, though single readings can be large; an effect the other way counts as inactive or inconclusive;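 note: plate controls were neutral wells for no effect and buffer without enzyme for full effect; nearly all actives have a fitted effect of over 40% in size; top concentration of the series not given in the record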
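Detergent-containing arm of a paired screen for aggregation-based inhibition: 0.01% Triton X-100 present. Cruzain at 1.5 nM cleaved 2 uM Z-FR-AMC at pH 5.5 with 5 mM DTT; AMC fluorescence gain over 60 s measured activity.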
Marburg entry inh – inhibitors of Marburg virus binding or cell entry; Marburg virus pseudotyped entry inhibition, cell reporter; control for the full effect not named in the record; about a third of the inactives were read at about 46 µM; actives 1.8% (n = 300,000); Potency, µM (series often up to 37.8 µM), inactives show at the highest dose activity change, negative = inhibition, usual class: inhibitors; active = well fitted inhibition curve with a large enough effect; inconclusive = small, poorly fitted or top-dose-only effect, or effect the other way; inactive = flat fitted curve, though single readings scatter; tested in HEK293 cells; about a fifth of its hits are not listed in these tables; note: % is set by controls: 0 for no effect and ±100 for the full control effect; luciferase read-out
LASV entry inh – Lassa virus entry inhibition; Lassa virus pseudotype entry inhibition, cell reporter; control for the full effect not named in the record; Potency, µM (series often up to 37.9 µM), without a hit: at the top dose activity change, negative = inhibition, most hits filed as inhibitors; actives 1.2% (n = 300,000); active means well fitted inhibition curve with a large enough effect; inconclusive means small, poorly fitted or top-dose-only effect, or effect the other way; inactive means flat fitted curve, though single readings scatter; tested in HEK293 cells; note: % is set by controls: 0 for no effect and ±100 for the full control effect; nearly all actives have a fitted effect of over 50% in size; luciferase read-out
SARS PLP yeast – blocks SARS-CoV papain-like protease in a yeast assay; S. cerevisiae expressing SARS-CoV PLpro, growth rescue; control for the full effect not named in the record; Potency, µM (highest dose often 32.9 µM), without a hit: at the highest dose activity, positive = growth rescue; actives 0.19% (n = 330,000); AID 485353; note: 0% is about no effect; nearly all actives have a fitted effect of over 55% in size; growth read by luminescence after 48 h
StopGo reporter – FMDV 2A StopGo reporter, luciferase signal; AID 1159524; actives 1.2% (n = 410,000); human cells with a luciferase reporter of 2A StopGo recoding; control for the full effect not named in the record; Potency, µM (top dose mostly 57.9 µM), without a hit: at the top dose signal change, negative = less light; active = well fitted falling curve with a large enough effect; inconclusive = small, poorly fitted or top-dose-only effect; inactive = no such curve, though single readings can be large or run the other way; tested in HEK293T cells; note: % is set by controls: 0 for no effect and ±100 for the full control effect; nearly all actives have a fitted effect of over 45% in size; luciferase light after 4 h
NS1 function inh – influenza NS1 inhibition; Potency, µM (doses to about 46.1 µM), without a hit: at the top dose activity, positive = more growth; AID 2326; S. cerevisiae slowed by influenza A NS1, growth recovery by OD600; actives 0.4% (n = 270,000); note: actives are rising curves; nearly all actives have a fitted effect of over 50% in size
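Compounds were scored for reversing the slow growth caused by influenza A NS1 in S. cerevisiae, measured by optical density at 600 nm. Assay medium contained 2% galactose at pH 6.0; NS1-free yeast of the same strain were the positive control.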
* = called active by the depositor; [ ] = dose if it differs, or a comment. Unless noted, calls come from the whole dose curve; as a rule, active means well fitted rising curve with a large enough effect; inconclusive means small, poorly fitted or top-dose-only effect; inactive means no such curve, though single readings can be large or run the other way. Potency is the fitted concentration of half-maximal effect.

How did COc1ccc(C(=O)NC(=S)Nc2cccc3cc(O)ccc23)cc1OC do in these assays?
RE007 growth inh: -25.9%; Marburg entry inh: 16.0%; LASV entry inh: -2.2%; SARS PLP yeast: -3.8%; StopGo reporter: -9.6%; NS1 function inh: 10.3%

Results for O=C(Cc1c(C(=O)O)[nH]c2ccccc12)NCCN1CCN(c2ccccc2F)CC1 ?
Cruzain inh noDet: 1.9%; RE007 growth inh: -5.1%; Cruzain Triton: 2.4%; Marburg entry inh: -20.9%; LASV entry inh: -16.9%; SARS PLP yeast: 3.3%; StopGo reporter: 2.0%; NS1 function inh: -3.5%

How did CCCNC(=O)OC[C@H]1O[C@H](CCO/N=C/[C@@H](OC)[C@H](C)/C=C/CC(=O)OC)C=C[C@@H]1Oc1ccc(OC)cc1 do in these assays?
Cruzain inh noDet: inconclusive; Cruzain Triton: -2.5%; Marburg entry inh: -29.0%; LASV entry inh: inconclusive; SARS PLP yeast: -2.0%; NS1 function inh: -42.6%

Results for Cc1ccc(CN(C)CCc2ccccn2)cc1 ?
Cruzain inh noDet: 1.5%; RE007 growth inh: -5.7%; Cruzain Triton: 2.0%; Marburg entry inh: 5.8%; LASV entry inh: -1.3%; StopGo reporter: -14.9%; NS1 function inh: -4.7%

Results for COc1ccccc1OCc1ccc(C(=O)N/N=C/c2ccco2)cc1 ?
Cruzain inh noDet: 6.2%; RE007 growth inh: 7.9%; Cruzain Triton: -1.8%; Marburg entry inh: -2.9%; LASV entry inh: -3.6%; SARS PLP yeast: -17.4%; StopGo reporter: -17.9%; NS1 function inh: 24.3%

How did O=C(NC(Cc1c[nH]c2ccccc12)C(=O)O)c1cccs1 (stereo not given) do in these assays?
RE007 growth inh: -6.5%; Marburg entry inh: -1.9%[14.2 µM]; LASV entry inh: -5.5%; SARS PLP yeast: -0.4%; StopGo reporter: 6.2%; NS1 function inh: 1.9%

Results for O=C(O)CSC(NC(=O)c1cccnc1)(C(F)(F)F)C(F)(F)F ?
Cruzain inh noDet: -0.5%; RE007 growth inh: -1.9%; Cruzain Triton: 0.5%; Marburg entry inh: inconclusive; LASV entry inh: -1.3%; SARS PLP yeast: 3.3%; StopGo reporter: 3.3%; NS1 function inh: -11.8%

Results for C/C=C\C(=O)Nc1cccc(C2=NOC3(C2)C[C@@H](C(N)=O)N(C(=O)CCCCC)C3)c1 (stereo not given in full) ?
RE007 growth inh: -13.7%; SARS PLP yeast: -1.6%; StopGo reporter: -21.0%; NS1 function inh: 2.7%

What do the screens show for `CC(=NCCN1CCCCC1)c1c(O)n(-c2ccccc2)c(=O)[nH]c1=O`?
RE007 growth inh: -11.1%; Marburg entry inh: inconclusive; LASV entry inh: 21.7%; SARS PLP yeast: 0.4%; StopGo reporter: -5.9%; NS1 function inh: -2.3%

What do the screens show for `Cc1[nH]c2ccc(C(=O)NCCCN3CCN(C)CC3)cc2c1C`?
RE007 growth inh: -5.1%; SARS PLP yeast: 24.8%; StopGo reporter: -25.9%; NS1 function inh: -5.0%

Results for CCC(=O)N1CCc2cc(Br)cc(S(=O)(=O)CCC(=O)NCc3ccc(C)cc3)c21 ?
Cruzain inh noDet: 4.7%; Cruzain Triton: 0.7%; Marburg entry inh: inconclusive; LASV entry inh: -26.0%[46.1 µM]; StopGo reporter: 16.8%

How did CCC(C)NC(=O)CCc1c(C)nc2cc(-c3ccc(OC)cc3OC)nn2c1C (stereo not given) do in these assays?
Cruzain inh noDet: 11.6%; Cruzain Triton: 2.4%; Marburg entry inh: -21.1%[46.1 µM]; LASV entry inh: 2.0%[46.1 µM]; StopGo reporter: 17.5%

How did COc1ccc(NC(=O)CSc2nnc(Cc3cccs3)n2C)cc1 do in these assays?
RE007 growth inh: 11.4%; Marburg entry inh: -7.6%[46.1 µM]; LASV entry inh: -1.8%; SARS PLP yeast: 2.1%; StopGo reporter: -9.0%

What do the screens show for `Cc1ccc(S(=O)(=O)N2CCCCC2)cc1NC(=O)c1ccccn1`?
RE007 growth inh: -5.6%; SARS PLP yeast: -3.3%; StopGo reporter: 6.9%; NS1 function inh: -4.4%

How did Cc1ccc(-c2cn3c(n2)sc2cc(C(=O)NC4CCCCCC4)ccc23)cc1 do in these assays?
Cruzain inh noDet: inconclusive; Cruzain Triton: 0.3%; LASV entry inh: -22.7%[46.1 µM]; StopGo reporter: 3.9%

What do the screens show for `Cc1cccc(OCCCCCN2CCOCC2)c1C`?
RE007 growth inh: 4.0%; Marburg entry inh: 4.7%[46.1 µM]; LASV entry inh: -16.1%[46.1 µM]; SARS PLP yeast: -1.3%; StopGo reporter: 7.9%; NS1 function inh: -12.7%

Results for CCN(CC)c1nc(C)c2c(c1C#N)CC(C)(C)OC2 ?
Cruzain inh noDet: 9.6%; RE007 growth inh: 3.5%; Cruzain Triton: -3.7%; Marburg entry inh: inconclusive; LASV entry inh: 1.3%; SARS PLP yeast: -3.8%; StopGo reporter: -15.7%; NS1 function inh: -7.9%

What do the screens show for `COc1cccc(C(=O)NCc2cn3ccccc3n2)c1`?
Cruzain inh noDet: 12.1%; Cruzain Triton: -9.4%; Marburg entry inh: -10.5%[46.1 µM]; LASV entry inh: -4.4%[46.1 µM]; StopGo reporter: 3.4%

What do the screens show for `CCOCCCNC(=O)C(c1ccccc1)N(Cc1cccs1)C(=O)CNC(=O)c1ccccc1` (stereo not given)?
Cruzain inh noDet: 15.3%; RE007 growth inh: -10.0%; Cruzain Triton: -0.6%; Marburg entry inh: 6.2%; LASV entry inh: -0.2%; SARS PLP yeast: -10.5%; StopGo reporter: -1.8%; NS1 function inh: -5.8%

What do the screens show for `COc1ccc2c(c1)C(c1ccccc1)=NNC(c1ccco1)=N2`?
Cruzain inh noDet: 2.2%; RE007 growth inh: -24.6%; Cruzain Triton: -8.9%; Marburg entry inh: 3.1%; LASV entry inh: -27.6%; SARS PLP yeast: -7.9%; NS1 function inh: inconclusive

Results for O=C(CSc1nnc2sc3ccccc3n12)N1CCN(c2ccccc2)CC1 ?
Cruzain inh noDet: 8.6%; RE007 growth inh: 8.3%; Cruzain Triton: 0.8%; Marburg entry inh: -4.0%; LASV entry inh: 13.2%; SARS PLP yeast: -5.6%; StopGo reporter: -12.3%; NS1 function inh: -0.6%

How did O=C(c1cccc(NS(=O)(=O)c2cccc(F)c2)c1)N1CCN(c2ccccc2)CC1 do in these assays?
Cruzain inh noDet: 0.1%; RE007 growth inh: 4.9%; Cruzain Triton: -7.6%; Marburg entry inh: inconclusive; LASV entry inh: inconclusive; SARS PLP yeast: 0.9%; StopGo reporter: -14.7%; NS1 function inh: 4.1%

How did Cc1ccc(Nc2nc(N)nc(CN3CCN(Cc4ccc5c(c4)OCO5)CC3)n2)c(C)c1 do in these assays?
Cruzain inh noDet: 10.8%; RE007 growth inh: 19.1%; Cruzain Triton: 5.9%; Marburg entry inh: -2.0%; LASV entry inh: 10.7%; SARS PLP yeast: 3.0%; StopGo reporter: inconclusive; NS1 function inh: -5.2%

Results for CCC1CCCCN1C(=S)Nc1ccc(C(C)=O)cc1 (stereo not given) ?
Cruzain inh noDet: 5.8%; RE007 growth inh: 4.2%; Cruzain Triton: -1.4%; Marburg entry inh: 2.2%; LASV entry inh: 10.1%; SARS PLP yeast: 10.8%; StopGo reporter: 57.1%[activator]; NS1 function inh: 5.3%

What do the screens show for `Cc1cc(NC(=O)CCN2CC(C)OC(C)C2)ccc1Br` (stereo not given)?
RE007 growth inh: -1.2%; SARS PLP yeast: -0.8%; StopGo reporter: -14.9%; NS1 function inh: -12.3%

What do the screens show for `O=C(COC(=O)CCC(=O)c1cccs1)NCc1ccccc1`?
RE007 growth inh: 1.4%; Marburg entry inh: -7.4%[14.2 µM]; LASV entry inh: -0.1%; SARS PLP yeast: 0.2%; StopGo reporter: -15.1%

Results for Cc1ccc(Nc2ccc(S(=O)(=O)N3CCOCC3)cc2[N+](=O)[O-])cc1C ?
Cruzain inh noDet: -1.7%; RE007 growth inh: 11.6%; Cruzain Triton: -6.8%; Marburg entry inh: inconclusive; LASV entry inh: inconclusive; SARS PLP yeast: inconclusive; StopGo reporter: inconclusive; NS1 function inh: 16.4%

Results for CCN(CC)S(=O)(=O)c1ccc(Cl)c(NC(=O)COc2ccc(OC)cc2[N+](=O)[O-])c1 ?
Cruzain inh noDet: 12.6µM*; RE007 growth inh: -7.2%; Cruzain Triton: -1.5%; Marburg entry inh: inconclusive; LASV entry inh: 6.1%; SARS PLP yeast: -7.5%; StopGo reporter: 0.0%; NS1 function inh: 6.2%

Results for Cc1ccc(C2(C)NC(=O)N(CC(=O)N(c3ccccc3)C3CCS(=O)(=O)C3)C2=O)cc1 (stereo not given) ?
RE007 growth inh: -4.1%; Marburg entry inh: inconclusive; LASV entry inh: -20.5%[46.1 µM]; SARS PLP yeast: -4.3%; StopGo reporter: -8.9%

Results for CCOc1ccc(S(=O)(=O)N2CCN(c3ccccc3F)CC2)c2cccnc12 ?
Cruzain inh noDet: inconclusive; RE007 growth inh: 9.7%; Cruzain Triton: -8.2%; Marburg entry inh: inconclusive; LASV entry inh: -13.6%; SARS PLP yeast: -6.9%; StopGo reporter: 0.0%; NS1 function inh: -14.2%

What do the screens show for `CCOC(=O)CSCCOc1ccc(C=C2C(=O)NC(=O)NC2=O)cc1OC`?
RE007 growth inh: -10.9%; Marburg entry inh: 6.0%[46.1 µM]; LASV entry inh: 18.3%[46.1 µM]; SARS PLP yeast: 0.5%; StopGo reporter: 10.6%; NS1 function inh: 4.0%

Results for COc1ccc(CNC(=O)CCC2N=C3c4ccccc4N=C(SCC(=O)NCC4CCCO4)N3C2=O)cc1 (stereo not given) ?
RE007 growth inh: -7.2%; Marburg entry inh: 0.2%[46.1 µM]; LASV entry inh: 14.9%[46.1 µM]; SARS PLP yeast: 1.2%; StopGo reporter: -2.1%; NS1 function inh: 5.0%

What do the screens show for `CCN(CC)S(=O)(=O)c1nnc(NC(=O)c2ccccc2Cl)s1`?
Cruzain inh noDet: 9.0%; Cruzain Triton: 0.4%; LASV entry inh: 29.7%[46.1 µM]; StopGo reporter: 2.0%

What do the screens show for `CC(=O)Nc1c(Nc2ccccc2)c2ccccc2oc1=O`?
RE007 growth inh: 25.9%; Marburg entry inh: 7.1%[46.1 µM]; LASV entry inh: 6.4%[46.1 µM]; SARS PLP yeast: 1.2%; StopGo reporter: -11.3%; NS1 function inh: 3.1%

What do the screens show for `CS(=O)(=O)N1CCC(Oc2ccccc2C(=O)N2CCN(CC3CC3)CC2)CC1`?
RE007 growth inh: 5.2%; Marburg entry inh: 8.4%[46.1 µM]; LASV entry inh: 16.9%[46.1 µM]; SARS PLP yeast: 0.5%; StopGo reporter: 5.1%; NS1 function inh: -3.8%

Source: PubChem
